Ecoli growth: E. coli growth inhibition, primary screen, OD600 | Escherichia coli growth, 23 h; stronger effect = lower value | OD600 absorbance (test concentration not listed) | 330,000 compounds, 0.21% hits;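 active = OD600 absorbance below the run mean of sample wells minus 3.6 SD, in any replicate, cut at about 0.56 in these data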;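 also: stock transfer was 300 nL into about 60 µL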
FGF22 binding: binders of human FGF22 protein, primary screen, FGF22 synaptogenesis inhibitor project, biophysical, thermal shift, single point. 340,000 compounds, 1.5% hits. recombinant FGF22 thermal shift, SYPRO orange fluorescence; percent of sucrose octasulfate shift, DMSO zero. Fibroblast growth factor 22 (Homo sapiens), Q9HCT0. calls only at 9.99 µM. AID 651658, 2012;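 active = melting point raised past a set limit in the mean and every replicate; inconclusive = no clear call; three in four hits are not shown here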
Target sequence (Q9HCT0 whole entry, looked up): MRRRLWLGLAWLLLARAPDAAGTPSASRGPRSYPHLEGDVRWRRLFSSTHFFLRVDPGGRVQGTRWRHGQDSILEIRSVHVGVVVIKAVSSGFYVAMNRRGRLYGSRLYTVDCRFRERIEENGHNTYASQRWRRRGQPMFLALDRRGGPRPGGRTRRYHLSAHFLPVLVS
UCH37 DUB inh: inhibitors of human UCH37 deubiquitinase, primary screen, biochemical, Ub-AMC cleavage, fluorescence | Ubiquitin carboxyl-terminal hydrolase isozyme L5 (Homo sapiens), Q9Y5K5 | purified proteasome/UCH37 | inhibition, % (test concentration not listed) | 330,000 compounds, 0.33% hits;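 active = mean of two replicates above 20%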;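 also: 0% = compound-free wells with enzyme and 100% = wells lacking proteasome; stock transfer was 100 nL into about 20 µL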
Target sequence (Q9Y5K5 whole entry, looked up): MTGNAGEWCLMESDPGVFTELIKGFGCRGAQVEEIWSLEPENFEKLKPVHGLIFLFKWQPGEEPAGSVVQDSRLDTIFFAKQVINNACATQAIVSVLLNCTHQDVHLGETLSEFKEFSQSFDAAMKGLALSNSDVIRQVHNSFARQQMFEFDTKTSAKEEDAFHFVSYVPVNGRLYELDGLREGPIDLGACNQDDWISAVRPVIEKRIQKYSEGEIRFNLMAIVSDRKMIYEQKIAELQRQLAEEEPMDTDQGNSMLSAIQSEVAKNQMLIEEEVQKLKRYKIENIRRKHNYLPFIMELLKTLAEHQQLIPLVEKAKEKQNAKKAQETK
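Material: human UCH37 enzyme supplied as purified proteasome complex / Amount: 0.15 nM proteasome as dispensed / Buffer or medium: pH 7.4 Tris-HCl (50 mM) with ovalbumin, ATP-MgCl2, DTT / Times: preincubation 30 min, reaction 25 min, room temperature / Technique: AMC fluorescence from Ub-AMC cleavage, excitation 355 nm, emission 460 nm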
Ecoli rRNA inh: reduced GFP signal of wild-type E. coli, primary screen, bacterial rRNA inhibitor project, GFP/RFP fluorescence, OD600, single point; E. coli WT GFP vs humanized-ribosome RFP mutants, 24 h; stronger effect = lower value; DMSO median 0, no signal -100; 350,000 compounds, 1.6% hits; GFP signal change (wild-type ribosome), % (test concentration not listed);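 active = significant combined selectivity score with lowered wild-type GFP, culture density cut under 30%, mutant RFP and density less affected; inactive = any of these conditions unmet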; also: one replicate is shown; some compounds called inactive have numbers as strong as hits
Bfl-1 A1 inh: caspase 3/7 activation in MEF A1-2A-BIM cells, primary screen, A1 inhibitor project, cell-based, luminescence, HTS; AID 2462, 2010; caspase activation, % (concentration not given with the values); Caspase-Glo 3/7 luminescence, 3 h; percent of clofoctol response, vehicle zero; 330,000 compounds, 0.066% hits;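 active = over half of replicate activation scores above 10%, or exactly half above 10 with the replicate mean above 10; inconclusive = replicate mean below 10 yet half the replicates above 10; inactive = over half of replicates below 10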;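 also: wells of about 30 µL received 50 nL stock; many hits fall short of the cut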
T cruzi inh: inhibitors of intracellular T. cruzi growth, primary screen, luminescence, NIH3T3 host cells; inhibition, % (concentration not given with the values); T. cruzi beta-gal in NIH3T3, 90 h; AID 1885, 2009; 300,000 compounds, 1.4% hits;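 active = mean inhibition across valid replicates above about 55%, limit read from the data; inconclusive = mean below that limit but half or more replicates reach it; inactive = mean below it, under half of replicates reach it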;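 also: signal also drops with host cell toxicity which is not excluded here; 0% = plate median of DMSO wells and 100% = zero luminescence signal; higher percent means less beta-gal luminescence so fewer parasites; stock transfer was 50 nL into about 50 µL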
AF4-AF9 inh: inhibitors of AF4 peptide binding to AF9, primary screen, biochemical, AlphaScreen, biotin-AF4 peptide, FLAG-AF9, single point. Protein AF-9 (Homo sapiens), P42568. inhibition, % at 10 µM. 350,000 compounds, 0.47% hits. AID 651704, 2012;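 active = every replicate reaching a set inhibition limit, whatever the replicate mean, cut at about 25% in these data; inconclusive = mean inhibition reaches that limit but some replicates miss it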;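 also: 0% = plate neutral control median and 100% = total signal loss; the record names both 10 and 1 µM as test concentration; the first replicate is given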
Target sequence (P42568 whole entry, looked up): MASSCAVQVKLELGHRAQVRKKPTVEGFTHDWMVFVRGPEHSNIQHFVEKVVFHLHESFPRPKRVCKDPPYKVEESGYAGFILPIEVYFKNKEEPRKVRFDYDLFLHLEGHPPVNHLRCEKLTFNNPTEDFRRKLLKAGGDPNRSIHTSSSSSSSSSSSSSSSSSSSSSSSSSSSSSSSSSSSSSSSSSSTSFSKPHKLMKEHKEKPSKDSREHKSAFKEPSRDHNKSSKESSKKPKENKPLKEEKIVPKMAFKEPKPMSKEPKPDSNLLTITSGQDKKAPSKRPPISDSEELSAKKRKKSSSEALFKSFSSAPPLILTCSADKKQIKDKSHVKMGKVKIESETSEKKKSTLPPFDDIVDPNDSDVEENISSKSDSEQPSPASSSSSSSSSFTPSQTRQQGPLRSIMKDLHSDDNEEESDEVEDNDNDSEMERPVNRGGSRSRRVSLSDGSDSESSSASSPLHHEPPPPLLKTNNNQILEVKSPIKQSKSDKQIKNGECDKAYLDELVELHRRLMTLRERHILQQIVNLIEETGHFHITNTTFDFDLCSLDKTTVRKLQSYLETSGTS
Beta cell apopt: inhibitors of cytokine-induced beta cell apoptosis, primary screen, luminescence; INS-1E cytokine-induced death, ATP luminescence, 48 h; percent of positive-control rescue, neutral wells zero; protection from apoptosis, % (test concentration not listed); 300,000 compounds, 0.8% hits;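 active = all replicates at 75% or more, or half of them and the mean; inconclusive = half reach 75% but not the mean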;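 also: 0% = cytokine-treated negative control wells and 100% = positive control rescue; higher means more ATP so stronger rescue from cytokine killing; wells of about 40 µL received 100 nL stock; the first replicate is given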
Ecoli rRNA inh OD600: recorded beside Ecoli rRNA inh, whose call it bears; OD600 change, %; measured here: OD600 growth;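 optical density of the mix in the first replicate; 0 = DMSO median and -100 = no signal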
Ecoli rRNA inh RFP: second read-out of Ecoli rRNA inh, no call of its own (marks repeat the call); RFP signal change, %; measured here: RFP humanized mutant strains;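 first replicate; 0 = DMSO median and -100 = no signal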
Starred values were filed as active, the others as inactive; i = inactive; ? = inconclusive; / = not tested or not shown.

SMILES	Ecoli growth	FGF22 binding	UCH37 DUB inh	Ecoli rRNA inh	Ecoli rRNA inh OD600	Ecoli rRNA inh RFP	Bfl-1 A1 inh	T cruzi inh	AF4-AF9 inh	Beta cell apopt
CC(C)OCCCNC(=O)c1cc2c(s1)CS(=O)(=O)C2	0.69	i	0.1	5	-6	-4.3	0.7	-4	-1.3	-1
N#Cc1cc2c(nc1SCC(=O)O)CCCCC2	0.65	i	4.9	3	-2	0.9	-0.7	4	2.3	2
COc1ccc(-n2ncc3c(NCCCN4CCOCC4)ncnc32)cc1	0.68	/	-0.2	/	/	/	1.2	6	/	-8
CCc1sc(N2C(=O)C3C4CCC(C4=C(C)C)C3C2=O)nc1-c1ccccc1 (centres undefined)	0.73	/	-2.4	/	/	/	1.0	19	/	6
Cc1ccc(C)n1N1C(=O)/C(=C\c2ccc(Cl)cc2)SC1=S	0.68	/	4.5	/	/	/	-0.4	-7	/	1
Cc1cc(Nc2ccc([N+](=O)[O-])cc2)c2ccccc2n1	0.65	i	5.1	7	7	-3.0	-0.2	4	-7.7	41
NC(=O)C1(N2CCCCC2)CCN(C(=S)Nc2ccccc2)CC1	0.66	i	2.5	5	3	-7.0	0.3	-12	3.2	-7
O=C(c1cccc(S(=O)(=O)N2CCOCC2)c1)N1CCN(S(=O)(=O)c2cccc([N+](=O)[O-])c2)CC1	0.66	/	1.1	-6	13	-1.1	/	/	-5.8	/
c1ccc(Cn2c(CNc3nc4ccccc4n3CCN3CCOCC3)nc3ccccc32)cc1	0.73	/	-0.6	/	/	/	1.3	14	/	12
COc1ccc(Cn2c(C)cc3c(c2=O)C(c2cccs2)C(C#N)=C(N)O3)cc1OC (centres undefined)	0.75	/	-0.7	/	/	/	-0.4	-6	/	7
CC1(C)C2CCC1(C)C(NC1=NCCC1)C2 (centres undefined)	0.71	/	5.6	/	/	/	-0.4	-14	/	1
CC(Oc1ccc(Cl)cc1Cl)C(=O)NC1CCSC1=O (centres undefined)	0.66	/	3.4	/	/	/	-0.4	-5	/	0
COc1ccc(NC(=O)C(NC(=O)c2ccc(=O)[nH]c2)c2ccccc2)cc1 (centres undefined)	0.68	/	1.6	/	/	/	0.8	-2	/	-5
CCc1nnc(NC(=O)CSCc2cc(=O)n3ccsc3n2)s1	0.69	i	1.4	-1	7	-0.8	-1.0	-8	-0.4	-5
CCCN(CC(=O)Nc1ccccc1C)C(=O)c1ccc(OCc2c(C)noc2C)cc1	0.66	i	-1.1	7	7	-1.2	/	/	-1.2	/
Cc1cc([N+](=O)[O-])nn1Cc1noc(C(=O)NCCCn2ccnc2)n1	0.66	i	5.3	5	7	6.7	0.8	-9	-0.3	-13
NC(=O)c1ccsc1NC(=O)COC(=O)C1CCCN1C(=O)c1cccs1 (centres undefined)	0.75	/	-0.4	/	/	/	0.8	-5	/	0
CN(C(=O)COC(=O)c1ccc(Cl)cc1N)C1CCS(=O)(=O)C1 (centres undefined)	/	/	-83	/	/	/	0.9	-20	/	-1
COc1ccc(/C=N/NC(=O)c2ccncc2)cc1CN1CCCc2ccccc21	/	i	/	6	-9	2.8	0.2	-3	?	3
COc1cc(OC)cc(-c2nnc(SCC(=O)N3CCCC3)o2)c1	0.78	/	1.0	/	/	/	-2.0	16	/	-3
CCCc1cc(=O)n2[nH]c(Cc3ccccc3)nc2n1	0.67	/	3.5	/	/	/	0.4	-11	/	/
COc1ccc(N(CC(=O)Nc2ccc3c(c2)OCCO3)S(=O)(=O)c2c(C)noc2C)cc1	0.67	/	0.6	/	/	/	-0.1	17	/	2
COCc1cc(C)nc(OC)c1C(N)=O	0.73	i	-3.1	10	3	1.0	0.5	-16	-1.1	-15
O=C(c1cn(-c2ccccc2)nc1-c1cc2ccccc2oc1=O)N1CCOCC1	0.7	i	-30	17	17	-0.3	1.1	-5	-1.0	-4
COC(=O)c1ccc(OCC(O)CNCC(c2ccc(OC)cc2)N(C)C)c(OC)c1 (centres undefined)	0.65	i	0.9	13	8	-2.8	-0.1	6	2.6	-5
CN(C)c1nc(Cl)nc2c1nc(Cl)n2C1CCCCO1 (centres undefined)	0.7	i	0.1	1	6	-4.1	/	/	0.2	/
CC(c1ccc(F)cc1)n1cc(C(=O)NCc2ccccn2)nn1 (centres undefined)	0.7	i	0.1	6	3	1.2	0.6	7	-2.2	-1
COc1ccc(O/C(=N\S(=O)(=O)c2ccccc2)c2ccccc2)cc1	/	i	/	10	11	-2.3	0.3	-19	3.1	-1
CCOc1ccccc1NC(=O)c1ccc(F)c(S(=O)(=O)N2CCC3(CC2)OCCO3)c1	0.66	/	-16	/	/	/	-0.3	-11	/	1
Cc1cc2cc3c(cc2nc1SCC(=O)N1c2ccccc2CC1C)OCO3 (centres undefined)	0.79	/	-1.1	/	/	/	0.4	23	/	3
O=C(CSc1nccn1-c1ncc(C(F)(F)F)cc1Cl)c1ccc(Cl)cc1	/	/	31*	/	/	/	-0.2	5	/	-1
Cc1noc(NS(=O)(=O)c2ccc(NC(=O)C34CC5CC(C3)CC(n3cnc(Cl)n3)(C5)C4)cc2)c1C	0.73	/	1.1	/	/	/	0.1	-19	/	2
COc1ccc(OC)c(NC(=O)CN(c2ccc(OC)c(Cl)c2)S(C)(=O)=O)c1	0.68	/	3.8	/	/	/	0.1	14	/	/
O=C(NCCc1csc(-c2cccnc2)n1)c1c(F)cccc1F	0.69	i	-1.6	9	-5	-5.7	0.9	-22	?	-2
CCOc1cc(Br)ccc1S(=O)(=O)N1CCC(C(N)=O)CC1	0.69	i	2.0	6	-4	0.3	0.3	-26	1.9	-8
O=C(NCCCN1CCOCC1)c1cc(S(=O)(=O)N2CCOCC2)c(Cl)cc1Cl	0.69	i	3.2	11	15	-1.0	0.8	/	-1.4	4
Cc1ccc(C)c(NC(=O)CCC(=O)N/N=C/c2cc([N+](=O)[O-])ccc2O)c1	/	i	/	-6	-2	4.8	-0.8	-23	-0.4	8
N#C/C(=C(/O)CCl)c1nnc2n1CCCCC2	0.68	i	1.9	13	9	0.1	1.1	-16	-3.9	-12
Cc1cccc(C)c1N1CCN(C(=O)N2CCOCC2)CC1	0.7	/	-2.0	-3	-6	4.5	0.4	-14	-2.0	-2
Cc1ccc(-n2c(=O)c3c4c(sc3n3c(C)nnc23)COC(C(C)C)C4)cc1 (centres undefined)	0.69	/	0.1	/	/	/	0.5	-4	/	-2
CSCCC(NS(=O)(=O)c1ccc2c(c1)OCCO2)C(=O)NCCc1ccccn1 (centres undefined)	0.73	/	1.5	/	/	/	0.3	-1	/	-2
Cn1c(=O)n(C)c2cc([N+](=O)[O-])c(N3CCN(C(=O)c4ccc(F)cc4)CC3)cc21	0.62	/	5.2	-16	-21	-1.0	0.2	5	-0.1	11
COC(=O)C(Cc1ccccc1)NC(=O)C12CC3CC(CC(C3)C1)C2 (centres undefined)	0.69	i	2.2	-34*	-19*	-4.2*	0.9	-19	2.5	0
COc1cc([N+](=O)[O-])ccc1NC(=O)COC(=O)C=C(C)C	0.7	i	6.1	/	/	/	0.3	7	-1.1	/
CN(C(=O)c1cccc(NC(=O)Cc2ccc([N+](=O)[O-])cc2)c1)C1CCCC1	0.69	i	0.2	-5	-5	0.2	0.2	/	3.7	-6
CCN(C(=O)CN1CCN(c2ccc(O)cc2)CC1)c1c(N)n(Cc2ccccc2)c(=O)[nH]c1=O	0.65	/	1.5	/	/	/	-0.5	11	/	-1
CC(C)(C)C1CCC(OCC(O)CN2CCN(Cc3ccccc3)CC2)CC1 (centres undefined)	0.67	i	7.3	-26	-51	9.9	0.0	57*	7.1	1
O=C(Nc1nnc(-c2ccncc2)o1)C1CCCCC1	0.73	i	-5.8	-4	-5	-7.1	0.3	-12	2.0	-5
CCN(CC(=O)NCc1cccs1)C(=O)Cc1ccc(C)c(C)c1	0.66	i	-3.5	1	-3	-1.2	0.4	/	2.2	-3
Cc1oc(-c2ccc(Cl)cc2)nc1CN1CCC(C(=O)NCCCN2CCOCC2)CC1	0.68	/	2.0	/	/	/	-0.3	26	/	-10
CCN(CC)CCn1c2c(c(SCC(=O)Nc3ccc(C(C)C)cc3)nc1=O)CCC2	0.69	i	9.2	1	5	-0.1	-0.5	9	-3.7	-8
Cc1ccc(S(=O)(=O)N2CCC(=O)N(C(COCc3ccccc3)C(C)C)CC2)cc1 (centres undefined)	0.67	i	3.1	-1	-2	1.4	0.7	-1	-6.4	0
CCCCn1c2c(c(=N)c3ccccc31)CCC2	0.61	i	1.5	22	13	1.8	-0.6	21	/	46
Cc1ccc2nc(-c3ccc(N4C(=O)CC(N5CCN(CCO)CC5)C4=O)cc3)sc2c1 (centres undefined)	0.72	/	-36	/	/	/	-0.2	4	/	-8
Cc1cc(C)cc(NC(=O)CCC(=O)N2CCSc3ccccc32)c1	0.72	i	1.2	-11	-25	-0.6	/	1	-0.1	/
O=C(CCS(=O)(=O)c1ccccc1)N1CCN(c2ccccc2F)CC1	0.69	i	1.7	3	5	1.8	-1.3	2	0.7	0
O=C(CNC(=O)c1ccco1)NNC(=O)c1n[nH]c(=O)c2ccccc12	0.67	i	3.7	11	12	-2.6	0.0	/	-0.7	9
COc1ccccc1N1CCN(CC(=O)c2c(C)n(C)c3ccccc23)CC1	0.65	/	3.4	/	/	/	0.6	15	/	/
O=C(NNC(=O)c1cc(-c2ccncc2)nc2ccccc12)c1ccccc1O	0.54	i	6.1	-48	-49	-10	0.0	-13	-0.2	24
CCCCCCCC(=O)NNC(=O)Cc1ccccc1	0.72	i	2.4	14	3	-6.3	0.2	-21	9.3	-5
Continuation.
SMILES	Ecoli growth	FGF22 binding	UCH37 DUB inh	Ecoli rRNA inh	Ecoli rRNA inh OD600	Ecoli rRNA inh RFP	Bfl-1 A1 inh	T cruzi inh	AF4-AF9 inh	Beta cell apopt
CCCCOc1ccccc1/C=N/NC(=O)CC#N	/	i	/	14	15	-0.5	-0.3	-3	-4.8	2
Cc1cc(Cl)ccc1NNC(=O)c1c(C)noc1C	0.66	i	5.2	2	3	1.3	-0.2	-13	6.7	-8
CCN(C(=O)C(C)Sc1nnc(-c2ccncc2)n1C)C1CCCCC1 (centres undefined)	0.7	i	1.0	/	/	/	1.2	/	-4.1	0
CC(=O)C1C(c2ccccc2OC(F)F)NC(=O)NC1(O)C(F)(F)F (centres undefined)	0.66	i	1.6	5	24	1.7	0.4	-10	-2.5	-5

Some of the compounds tested; rates above refer to the full screens.
